RanGTP-Imp inh: disruptors of Ran-importin-beta complex formation – biochemical, FRET, CFP-Ran, YFP-importin-beta, homogeneous, primary screen; cell-free CFP-Ran/YFP-importin-beta FRET ratio; inhibition, % (concentration not given with the values); 300,000 compounds, 1.1% hits; AID 2216;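 active means most replicates above 15%; inconclusive means exactly half above 15%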;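 further: 0% = DMSO wells and 100% = Ran loaded with GDP instead of GTP; wells of about 40 µL received 100 nL stock; the first replicate is given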
UCH37 inh: inhibitors of human deubiquitinating enzyme UCH37; Q9Y5K5; purified proteasome/UCH37, Ub-AMC cleavage fluorescence; inhibition, % (test concentration not listed); 330,000 compounds, 0.33% hits; AID 588478;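 active means mean of two replicates above 20%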;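 further: 0% = compound-free wells with enzyme and 100% = wells lacking proteasome; stock transfer was 100 nL into about 20 µL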
Target sequence (Q9Y5K5 whole entry, looked up): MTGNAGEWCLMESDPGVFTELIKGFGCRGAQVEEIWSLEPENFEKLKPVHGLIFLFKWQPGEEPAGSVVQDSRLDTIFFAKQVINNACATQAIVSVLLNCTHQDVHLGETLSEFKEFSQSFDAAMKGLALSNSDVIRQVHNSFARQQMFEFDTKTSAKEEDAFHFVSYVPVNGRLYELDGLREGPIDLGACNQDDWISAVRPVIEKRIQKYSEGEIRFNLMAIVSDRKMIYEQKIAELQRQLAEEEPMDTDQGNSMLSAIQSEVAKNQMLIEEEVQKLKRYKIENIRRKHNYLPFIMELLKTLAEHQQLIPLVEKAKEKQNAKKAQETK
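system = Proteasome-associated human UCH37 deubiquitinase | amount = 0.15 nM proteasome as dispensed | medium = pH 7.4 Tris-HCl (50 mM) with ovalbumin, ATP-MgCl2, DTT | incubation = 30 min preincubation with enzyme, 25 min cleavage at room temperature | detection = AMC fluorescence 355/460 nm | read-out basis = percent inhibition | controls = no-proteasome and no-compound wells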
Calb FLC: affects C. albicans growth with fluconazole | C. albicans CaCi-2 (fluconazole-resistant clinical isolate) + fluconazole, Alamar Blue growth, 48 h | growth inhibition, % (concentration not given with the values) | 300,000 compounds, 0.57% hits;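 active means most replicates above 75%; inconclusive means exactly half above 75%; inactive means most below 75%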;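 further: all wells also contain fluconazole at 8 µg/ml as a sub-toxic cotreatment; 0% = median of DMSO wells and 100% = median of geldanamycin control wells; wells of about 8 µL received 7.5 nL stock; the first replicate is given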
T cruzi inh: T. cruzi replication inhibition | T. cruzi beta-gal in NIH3T3, luminescence, 90 h | inhibition, % (test concentration not listed) | 300,000 compounds, 1.4% hits | AID 1885;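 active means mean inhibition across valid replicates above about 55%, limit read from the data; inconclusive means mean below that limit but half or more replicates reach it; inactive means mean below it, under half of replicates reach it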;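 further: signal also drops with host cell toxicity which is not excluded here; 0% = plate median of DMSO wells and 100% = zero luminescence signal; higher percent means less beta-gal luminescence so fewer parasites; stock transfer was 50 nL into about 50 µL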
Bfl-1 A1 inh: inhibitors of the anti-apoptotic protein A1, read as caspase activation; 330,000 compounds, 0.066% hits; caspase activation, % (test concentration not listed); MEF A1-2A-BIM cells, Caspase-Glo 3/7 luminescence, 3 h; percent of clofoctol response, vehicle zero; AID 2462;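 active means over half of replicate activation scores above 10%, or exactly half above 10 with the replicate mean above 10; inconclusive means replicate mean below 10 yet half the replicates above 10; inactive means over half of replicates below 10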;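 further: wells of about 30 µL received 50 nL stock; many hits fall short of the cut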
Beta apoptosis: blocks beta cell apoptosis. 300,000 compounds, 0.8% hits. INS-1E cytokine-induced death, ATP luminescence, 48 h; percent of positive-control rescue, neutral wells zero. protection from apoptosis, % (no concentration beside the values);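 active means all replicates at 75% or more, or half of them and the mean; inconclusive means half reach 75% but not the mean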;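 further: 0% = cytokine-treated negative control wells and 100% = positive control rescue; higher means more ATP so stronger rescue from cytokine killing; wells of about 40 µL received 100 nL stock; the first replicate is given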
B2AR ag: human beta-2 adrenergic receptor agonism by FAP; 340,000 compounds, 0.43% hits; Am2.2-beta2AR cells, FAP receptor internalization, flow cytometry; reference of the scale not given here; P07550; response, % (no concentration beside the values);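 active means response above a set limit, near 3 SD of response in nonfluorescent compounds, cut at about 42% in these data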;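 further: stock transfer was 100 nL into about 11 µL; a reference agonist was the positive control; negative values mostly stem from fluorescent compounds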
Target sequence (P07550 whole entry, looked up): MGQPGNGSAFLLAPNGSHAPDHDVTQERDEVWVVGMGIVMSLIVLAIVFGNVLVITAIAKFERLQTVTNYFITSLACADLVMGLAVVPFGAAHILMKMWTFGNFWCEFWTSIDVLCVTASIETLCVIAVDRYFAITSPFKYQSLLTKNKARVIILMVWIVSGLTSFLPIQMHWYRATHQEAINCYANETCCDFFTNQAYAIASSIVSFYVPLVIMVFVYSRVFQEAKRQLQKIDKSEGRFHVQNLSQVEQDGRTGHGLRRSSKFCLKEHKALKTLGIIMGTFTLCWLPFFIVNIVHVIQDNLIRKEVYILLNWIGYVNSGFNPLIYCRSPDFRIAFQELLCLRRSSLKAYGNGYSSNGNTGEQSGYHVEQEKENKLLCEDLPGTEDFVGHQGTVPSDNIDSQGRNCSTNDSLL
LANA-H2A inh: blocks KSHV LANA binding to histone H2A/H2B | Q9QR71 | AID 2629 | inhibition, % (test concentration not listed) | 320,000 compounds, 0.6% hits | cell-free LANA-H2A/H2B peptide, fluorescence polarization; in the data active means inhibition mostly above about 10%, no sharp cut-off; inactive means mostly below about 6.7%;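 further: stock transfer was 7.5 nL into about 10 µL; 0% = median of vehicle wells and 100% = median of positive control wells; one replicate is shown; the record names a cut of 25% in any replicate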
An asterisk follows results filed as active; ? = inconclusive; . = no result given; & = joins results of further samples.

structure	RanGTP-Imp inh	UCH37 inh	Calb FLC	T cruzi inh	Bfl-1 A1 inh	Beta apoptosis	B2AR ag	LANA-H2A inh
CCOc1ccc(C(=O)CCC(=O)N2CCC(C(=O)OC)CC2)cc1	-4.2	-0.5	-5	-10	0.3	-4	6	-2.1
CCCCCOC(=O)C1[C@H]2C(=O)N(c3ccccc3CC)C[C@]23C=C[C@H]1O3 (stereo not given in full)	-0.2	-0.3	-1	-7	1.0	0	2	4.6
CCc1cccc(CC)c1NC(=O)COC(=O)c1cccc(-c2ccc(OC(C)=O)cc2)c1	5.0	-1.7	6	-10	-0.8	4	4	4.5
O=C1c2cccc([N+](=O)[O-])c2C(=O)N1CCO	3.3	0.6	1	0	2.4	3	9	-4.4
COc1ccc(S(=O)(=O)N2CCC(C(=O)N3CCCCC3)CC2)cc1OC	1.6	1.1	-17	-10	-1.8	1	-5	-3.9
COc1ccc(C(=O)n2nc(C)c(Br)c2C)cc1	?	1.5	22	-17	1.5	-4	-8	-2.6
COc1cccc(-c2nc(CSCC(=O)NCC3CCCO3)c(C)o2)c1 (stereo not given)	-3.0	1.0	11	-2	-0.3	2	-8	-1.9
Cc1nc(NC(=O)c2ccccc2)sc1C1(C)CC(c2c(Cl)cccc2Cl)=NO1 (stereo not given)	-3.1	.	2	28	.	.	-3	.
COc1ccccc1NC(=O)CN(c1ccc([N+](=O)[O-])cc1)S(=O)(=O)c1ccccc1	1.4	-18	10	23	0.3	6	15	2.7
COc1ccc(NC(=O)c2ccc(CNc3c(NC4CCCCC4)c(=O)c3=O)cc2)c(OC)c1	0.9	-0.3&4.6	-4	1	-0.6	3	1&-3	-5.0
Cc1ccc(SCC(=O)OCC(=O)NCc2cccs2)cc1	-1.9	2.6	0	-5	-0.7	0	-6	1.4
CC1SCC(=O)N(CC(=O)NCc2ccccc2)C1=O (stereo not given)	2.7	0.2	-25	-24	0.4	-6	-1	2.3
CSC1=NC2(C[C@H]2c2ccccc2)C(=O)N1C (stereo not given in full)	-0.6	-1.3	2	-6	0.9	-5	4	9.3
COc1ccc(NC(=O)c2ccco2)cc1NC(=O)c1cccc(OC(C)C)c1	3.8	2.0	-2	37	-1.1	4	-17	-4.4
Cc1ccc(-n2c(SCC(=O)Nc3ccc4c(c3)OCO4)nnc2-c2cccs2)cc1	1.5	4.6	3	23	-1.1	7	-2	0.0
Cc1ccc(OCCn2cc(/C=C/C(=O)O)c3ccccc32)cc1	-3.4	4.6	6	-11	.	.	8	.
O=C(NC1CCCCCCC1)c1ccc(CNc2c(N3CCOCC3)c(=O)c2=O)cc1	2.6	-1.9	-10	5	0.1	-8	-5	-6.8
Cc1cccc(OCCC(=O)Nc2c(C)n(C)n(-c3ccccc3)c2=O)c1	0.8	0.8	.	-16	-0.2	-1	-5	-0.7
Cc1ccsc1-c1nc(CSCC(=O)N2CCN(c3ccccc3)CC2)c(C)o1	6.8	4.3	-10	5	.	3	1	0.9
N/C(=N\OC(=O)c1ccccc1Br)c1ccc([N+](=O)[O-])cc1	1.5	.	-1	-5	-1.4	4	0	0.3
COc1ccc(-c2cc(C(=O)NC3=NCCS3)c3ccccc3n2)cc1OC	2.1	-52	6	-36	?	10	9	-3.6
Fc1ccc(-[n+]2nc(Nc3ccccc3)sc2-c2ccc(OCc3ccccc3)cc2)cc1	1.7	1.6	-17	14	-0.8	-1	6	-1.2
O=C(CN1CCN(S(=O)(=O)c2ccccc2)CC1)NC1CC1	1.1	.	1	-3	0.7	0	-5	1.0
COc1ccc(NC(=S)N2CCCC(CO)C2)c(OC)c1 (stereo not given)	-0.7	1.7	6	-13	-0.2	0	1	8.0
O=[N+]([O-])c1ccc(C=Nc2cccc3ccccc23)s1	?	1.5	14	61*	-1.3	7	-2	-2.7
COc1ccc(C)cc1S(=O)(=O)NC(C)c1cnn(-c2ccccn2)c1C (stereo not given)	-1.5	1.6	57	-7	0.0	5	-2	-1.0
Cc1nc2ccccn2c1C(=O)CSc1ccccc1	0.6	3.4	-28	2	-0.3	-5	10	1.0
CN(C)S(=O)(=O)c1ccc(Cl)c(-c2nnc3n2CCCCC3)c1	-2.4	0.7	-12	-1	0.9	-9	5	5.5
COc1ccc(-c2sc3ccc(N4CCOCC4)cc3c2C#CC(C)(C)O)cc1	.	.	.	.	-1.9	-6	9	1.0
COc1ccc(C(=O)CC(=O)C(=O)Nc2ccc(Cl)cc2)cc1	3.3	3.9	-16	2	0.6	5	1	-1.7
Cn1c(CCc2ccccc2)nnc1SCC(=O)N1CCOCC1	0.6	1.7	-8	10	-0.2	.	-1	2.9
CCOC(=O)CNC(=O)CSc1nnc(-c2ccccc2OC)n1CC	?	1.9	3	-11	2.3	.	-5	-5.0
O=C(c1ccc(NC2=NC3CS(=O)(=O)CC3S2)cc1)N(CCO)Cc1ccccc1 (stereo not given)	-0.5	0.7	-3	-7	0.5	-5	-1	3.9
COn1c(-c2ccccc2)nc2c1CCc1nonc1-2	0.1	2.6	5	-9	-0.8	0	-16	0.2
COCCN1C(=O)N[C@@H](c2ccccc2)[C@H](C(=O)OC)[C@H]1C	-1.5	1.0	2	-9	-0.1	1	-3	3.3
O=C(CSc1nc2ccc(Cl)cc2[nH]1)Nc1ccc2c(c1)CCC2	0.8	2.1	0	-15	0.7	-3	0	7.6
NC(=O)C[C@@H]1N[C@]2(C(=O)Nc3ccccc32)[C@@H]2C(=O)N(c3cc(C(F)(F)F)ccc3Cl)C(=O)[C@H]12	-2.1	4.3	-15	3	0.5	-11	2	5.4
Cc1ccc(-n2c(SCC(N)=O)nnc2-c2ccco2)cc1	-3.4	0.1	-5	-18	0.0	-2	-3	-3.3
COc1ccc(-c2cc(C(=O)Nc3ccc(OC)cc3OC)no2)cc1	-0.4	-43	-1	-3	-0.4	-6	-5	2.3
CCC(CC)NC(=O)c1cccc([N+](=O)[O-])c1C	-2.3	1.7	-4	-12	1.2	-8	1	-3.2
COc1ccc2c(c1)[nH]c1c(=O)n(CCCn3ccnc3)cnc12	1.0	-4.1	6	-1	-0.1	0	-4	3.6
O=C(c1cc(-c2ccc(Cl)cc2)on1)N1CCOCC1	-4.2	5.0	?	-2	-9.6	-1	9	-3.5
CC(=O)Nc1ccccc1C(=O)C(=O)Nc1ccc(F)c(Cl)c1	-2.0	5.0	-13	-8	1.8	2	1	-0.7
Cc1ccsc1/C=N/N1CCN(c2ccccn2)CC1	1.7	.	1	-4	-2.5	5	-4	-1.0
CNC(=O)C(=O)Nc1ccc(C)cc1C	2.6	1.5	-20	-3	-0.5	5	-2	1.1
Cc1ccc(S(=O)(=O)CCN2CCC(O)(c3ccccc3)CC2)cc1	-3.7	1.2	-1	3	1.9	-4	-5	3.1
CSCC[C@H](NC(=O)OC(C)(C)C)c1nnc(SCC(=O)Nc2ccc(C)cc2C)o1	20	4.5	-1	4	-0.3	-4	3	-1.1
O=C(NCc1ccncc1)c1cccc(S(=O)(=O)N2CCc3ccccc32)c1	.	-0.1	.	.	-0.5	24	1	-3.3
Cc1cccc(C2c3[nH]c4ccccc4c3CCN2C(=O)Cc2n[nH]c(C)n2)n1 (stereo not given)	3.3	4.9	-4	3	-0.4	-11	0	8.7
CCC(C)[C@H](NC(=O)Nc1cccc(Cl)c1)C(=O)O (stereo not given in full)	3.4	0.3	-1	-18	1.4	2	0	6.5
Cc1nn(Cc2ccc(C(=O)N3CCOCC3)o2)c(C)c1Br	?	3.7	1	0	0.6	.	0	4.6
Cc1c(C(=O)Nc2ccccc2)cnn1-c1ccccc1	-0.9	-1.4	-14	6	-5.1	9	-6	-1.5
O=C(O)c1cccc2c1C(=O)N(c1ccccc1)C2	4.3	1.9	-3	-7	-0.3	-1	-3	2.0
CCN(C(=O)C1CCCN(c2nc(-c3ccc(OC)cc3)no2)C1)c1ccc(OC)cc1 (stereo not given)	1.2	-3.6	10	10	-0.2	5	1	-4.3
C[C@H](CO)N1C[C@H](C)[C@@H](CN(C)Cc2ccc(Cl)c(Cl)c2)Oc2c(NC(=O)CCC(F)(F)F)cccc2C1=O	.	2.7	.	.	-0.9	7	6	7.4
O=S(=O)(N1CCOCC1)N1CCN(c2ccccc2F)CC1	9.0	-0.5	3	-10	0.3	-4	-4	5.6
COc1ccc(N2C(=O)CC(N(CCc3ccccc3)C(=O)c3ccccc3)C2=O)cc1 (stereo not given)	4.0	6.5	0	-8	-1.0	-1	3	-1.5
Cc1ccc(C(NC(=O)NN2CCN(C)CC2)C(Cl)Cl)cc1F (stereo not given)	2.7	3.2	30	32	0.0	1	-4	-4.2
COc1cc(C(=O)O/N=C(\N)c2ccncc2)cc(OC)c1OC	0.4	2.8	3	-28	0.3	-6	4	-3.5
O=Cc1ccc(N2Cc3ccccc3C2)cc1	18*	-2.5	-11	1	1.3	2	10	-8.0

The results go on.
structure	RanGTP-Imp inh	UCH37 inh	Calb FLC	T cruzi inh	Bfl-1 A1 inh	Beta apoptosis	B2AR ag	LANA-H2A inh
COc1cc(/C=C/C(=O)OCC(=O)NCCCc2ccccc2)cc(OC)c1OC	.	-8.7	.	.	-1.2	-3	1	9.8
O=C(CNC1C(=O)Nc2ccccc21)Sc1ccccc1 (stereo not given)	3.8	1.0	2	2	0.2	-4	-2	-3.8
Cc1ccc2c(c1)C(c1ccncc1)=NNC(c1ccc(F)cc1)=N2	-1.6	2.8	-6	21	0.1	3	-6	-2.0
Cc1[nH]c2ccc(C(=O)NCCCN(C)C3CCCCC3)cc2c1C	0.3	1.3	6	6	0.3	-4	-1	-1.1
COc1ccccc1OCCCCCc1c(C)n[nH]c1C	1.4	0.8	9	-2	1.2	6	3	2.6
CCOCCCNC(=O)C(c1ccc(OC)cc1)N(Cc1ccc2c(c1)OCO2)C(=O)c1ccccn1 (stereo not given)	-1.2	1.2	-3	9	-0.2	-2	-5	-3.3
Cc1cc(C(=O)OCC(=O)Nc2nc(-c3ccccc3)cs2)c(C)o1	0.4	5.1	-11	6	0.8	1	5	1.8
O=C1CC(=O)Nc2cc(S(=O)(=O)N3CCOc4ccccc43)ccc2N1	-2.3	2.1	-9	1	.	2	-9	8.5
COc1ccc(N2CCN(CC(O)COc3ccc([N+](=O)[O-])cc3)CC2)cc1 (stereo not given)	.	5.7	7	-3	0.2	1	13	-2.5
CCOc1cc(/C=N/Nc2nnc(C)n2N)ccc1O	2.1	.	40	-4	0.7	0	-1	-1.8
CC1CN(C(=O)COC(=O)c2nn(-c3ccccc3)c(=O)c3ccccc23)CC(C)O1 (stereo not given)	3.4	4.4	-13	-17	1.3	-5	-18	7.5

Assay outcomes as filed in PubChem BioAssay.
